Source: PubChem
PrP 5UTR inh: suppresses PrP 5' UTR mRNA reporter expression; cell-based PrP 5' UTR mRNA reporter, plate reader; inhibition, % (no concentration beside the values); actives 0.35% (n = 340,000); AID 488862;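 active = every replicate at 50% or more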;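 also: 0 = median of the neutral control wells; tested in H4 reporter cells; numbers are from one replicate; inactives centre near -14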
ugtP null kill: compounds lethal to S. aureus RN4220 ugtP deletion mutant; actives 0.54% (n = 330,000); OD600 growth, 16 h; some inactives read as strong as hits; AID 1259309; growth inhibition, % (concentration not given with the values);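 active = z-score under -3 and OD600 up to 0.15 on both plates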;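 also: plate controls were untreated wells for no effect and antibiotic for full effect; wells of about 80 µL received 100 nL stock; the first replicate is given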
RN4220 kill: S. aureus RN4220 growth inhibition; actives 0.33% (n = 330,000); inhibition, % (no concentration beside the values); OD600, 16 h; AID 1259311;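 active = z-score of -3 or lower and OD600 up to 0.18 on both plates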;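 also: plate controls were untreated cells for no effect and reference antibiotic for full effect; stock transfer was 100 nL into about 80 µL; one replicate is shown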
BJeLR viability: BJeLR cell viability loss; BJeLR (HRASV12) viability, CellTiter-Glo ATP luminescence, 48 h; reference of the scale not given here; inhibition, % (no concentration beside the values); actives 0.17% (n = 300,000); AID 1554;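 active = replicate mean above 50%; inconclusive = above 50% but judged a plate artefact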;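 also: 50 nL library stock added to about 25 µL; numbers are from one replicate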
Mtb hypoxia rep: Mtb hypoxia fluorescent reporter inhibition | actives 0.1% (n = 300,000) | M. tuberculosis hypoxia-regulated fluorescent reporter, fluorescence | fluorescence inhibition, % (concentration not given with the values) | AID 1159583;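 active = 35 to 45% if threefold the growth effect, above 45% if 1.5-fold the growth effect; inactive = the rest, general growth blockers included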;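 also: wells of about 50 µL received 100 nL stock; 0% = vehicle wells and 100% = reference inhibitor wells; whole bacteria with a GFP reporter of the hypoxia response; strong numbers were not always called active; many hits fall short of the cut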
Bead autofluor: counter-screen for toxin protease inhibitors: compound fluorescence | compound autofluorescence counterscreen, microsphere flow cytometry; hits give high values | fluorescence intensity (test concentration not listed) | actives 3.1% (n = 360,000);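 active = at least 3 SD above the mean of all compounds, about 16000 in these data; inconclusive = too few beads counted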;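 also: 100 nL of 1 mM stock went into each well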
Mtb hypoxia rep growth: second read-out of Mtb hypoxia rep, no call of its own (marks repeat the call); growth inhibition, %; measured here: M. tuberculosis growth (absorbance);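 0% = vehicle and 100% = reference antibiotic; read after six days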
* hit, by the source's call. Not a hit list; any-hit rate near 4%.

For COc1ccc(-c2csc(NC(C)c3nc4cc(C(=O)NCCCO)ccc4n3Cc3ccc(C)cc3)n2)cc1 (stereo not given) the results were PrP 5UTR inh -9, ugtP null kill 3, RN4220 kill -3.0, BJeLR viability -13, Mtb hypoxia rep 7, Bead autofluor 3902 and Mtb hypoxia rep growth 5.
O=C(NN=Cc1ccc[nH]1)c1ccncc1 was read as ugtP null kill 2, RN4220 kill -0.9, Mtb hypoxia rep 1 and Mtb hypoxia rep growth -7.
Screening COc1ccc(-n2nnnc2SCC(=O)c2ccc3c(c2)OCCO3)c(OC)c1 returned PrP 5UTR inh -10, ugtP null kill 7, RN4220 kill 3.1, BJeLR viability 4, Mtb hypoxia rep 2, Bead autofluor 10790 and Mtb hypoxia rep growth 1.
Screening CC(C)N(C(=O)[C@H]1C[C@H](CC(=O)NCc2ccco2)C(=O)N2CCc3c([nH]c4ccc(Cl)cc34)[C@]12C)C(C)C returned PrP 5UTR inh -11, ugtP null kill -27, RN4220 kill -5.7, Mtb hypoxia rep 1, Bead autofluor 4145 and Mtb hypoxia rep growth -4.
`CC(=O)NC(Cc1ccc(F)cc1)C(=O)NC1CCN(c2nnnn2-c2ccccc2)CC1` (stereo not given) gave PrP 5UTR inh -14, ugtP null kill -9, RN4220 kill -0.6, BJeLR viability 1 and Bead autofluor 4614.
Screening COc1cc(OC)c(C2=NOC(C(=O)N3CCN(C(=O)c4ccco4)CC3)C2)cc1Cl (stereo not given) returned PrP 5UTR inh -15, ugtP null kill -1, RN4220 kill 8.6, BJeLR viability 4, Mtb hypoxia rep -7, Bead autofluor 3845 and Mtb hypoxia rep growth 12.
Screening CCOc1ccc(C2C(C(=O)O)c3ccccc3C(=O)N2CCN2CCOCC2)cc1 (stereo not given) returned PrP 5UTR inh -14, ugtP null kill -2, RN4220 kill 2.8, BJeLR viability 5 and Bead autofluor 4302.
`Cc1ccc(N(C(=O)Cc2c[nH]c3ccccc23)C(C(=O)NC2CCCCC2)c2ccco2)cc1` (stereo not given) gave PrP 5UTR inh -13, ugtP null kill 1, RN4220 kill -3.2, BJeLR viability -3, Mtb hypoxia rep 5, Bead autofluor 8645 and Mtb hypoxia rep growth 4.
COC(=O)c1c(NC(=O)CN2CCN(S(=O)(=O)c3ccccc3[N+](=O)[O-])CC2)sc2c1CCC(C)C2 (stereo not given) was read as PrP 5UTR inh -4, ugtP null kill -11, RN4220 kill 3.9, BJeLR viability -10, Mtb hypoxia rep 6, Bead autofluor 8975 and Mtb hypoxia rep growth 4.
Cc1cccc(N=CC=C2OC(C)(C)C(C)(C)O2)c1 was read as PrP 5UTR inh -36, ugtP null kill -18, RN4220 kill 17, BJeLR viability -8, Mtb hypoxia rep -3, Bead autofluor 8755 and Mtb hypoxia rep growth 0.
For OCC1(Cc2ccccc2F)CCCN(Cc2c(F)ccc(F)c2F)C1 (stereo not given) the results were PrP 5UTR inh -14, ugtP null kill 11, RN4220 kill 8.4, BJeLR viability -13, Mtb hypoxia rep 13, Bead autofluor 4119 and Mtb hypoxia rep growth 6.
CC(O)[C@H]1CN=C(N)N1CC1CCCCC1 (stereo not given in full) was read as PrP 5UTR inh -18, BJeLR viability -10 and Bead autofluor 3452.
Screening Cn1c(=O)c2c(nc(CN3CCCCC3)n2CCc2ccccc2)n(C)c1=O returned PrP 5UTR inh -7, ugtP null kill 3, RN4220 kill 5.4, BJeLR viability 5 and Bead autofluor 2121.
CCOC(=O)C1=c2s/c(=C\c3cccnc3)c(=O)n2C(N)=C(C(=O)OC)C1c1cccnc1 (stereo not given) was read as PrP 5UTR inh -9, BJeLR viability -4 and Bead autofluor 4401.
Screening Cc1nnc(SCC(=O)NCc2ccccc2)n1-c1ccccc1 returned PrP 5UTR inh -16, ugtP null kill 0, RN4220 kill 3.8, BJeLR viability 1 and Bead autofluor 4234.
`CC(C)C[C@@H](CN=[N+]=[N-])N1CCN(CC(C)C)CCC1=O` gave PrP 5UTR inh -9, BJeLR viability 5 and Bead autofluor 4328.
Cc1noc(C)c1NC(=O)Nc1ccc2c(c1)C(=O)N(C(C)CO)CC(C)C(CN(C)C(=O)NC1CCCCC1)O2 (stereo not given) was read as ugtP null kill -2, RN4220 kill 4.2, Mtb hypoxia rep 6 and Mtb hypoxia rep growth 8.
Cc1ccc(NC(=S)N(CCN(C)C)C(C)c2cccnc2)c(C)c1 (stereo not given) was read as PrP 5UTR inh -18, ugtP null kill 13, RN4220 kill -0.5, BJeLR viability -10, Mtb hypoxia rep 3, Bead autofluor 3702 and Mtb hypoxia rep growth 10.
`Fc1ccc(C2=Nc3cccc4cccc(c34)N2)cc1` gave PrP 5UTR inh -17, ugtP null kill -4, RN4220 kill 2.7, BJeLR viability 5, Mtb hypoxia rep -13, Bead autofluor 1976 and Mtb hypoxia rep growth -7.
CC(=O)c1c(C)[nH]c(C(=O)Nc2ccc(C)c(S(=O)(=O)N(C)C)c2)c1C was read as PrP 5UTR inh -100, ugtP null kill 4, RN4220 kill 2.0, BJeLR viability 3, Mtb hypoxia rep 3, Bead autofluor 4426 and Mtb hypoxia rep growth 8.
`O=C(COc1ccc(Cl)cc1)N1CCN(Cc2ccccc2)CC1` gave PrP 5UTR inh -8, ugtP null kill -1, RN4220 kill 5.0, BJeLR viability 0, Mtb hypoxia rep 16, Bead autofluor 10574 and Mtb hypoxia rep growth 6.
Screening COC(=O)C1=C(C(=O)OC)C2(OC1c1ccc(Br)cc1)C(=O)c1ccccc1C2=O (stereo not given) returned PrP 5UTR inh -13, ugtP null kill 1, RN4220 kill 4.8, BJeLR viability -8, Mtb hypoxia rep 2, Bead autofluor 3830 and Mtb hypoxia rep growth 4.
For O=C(CSc1nc2ccccc2[nH]1)N/N=C/c1ccco1 the results were PrP 5UTR inh -1, BJeLR viability -8 and Bead autofluor 5752.
`COc1ccc(OCc2nn3c(-c4ccccn4)nnc3s2)cc1` gave PrP 5UTR inh -10, ugtP null kill 6, RN4220 kill -4.0, BJeLR viability -12 and Bead autofluor 3524.
`CCCC(NCC(O)COc1ccc(-c2ccccc2)cc1)c1ccccc1` (stereo not given) gave PrP 5UTR inh 35, ugtP null kill -11, RN4220 kill -5.1, BJeLR viability 6, Mtb hypoxia rep 0, Bead autofluor 4636 and Mtb hypoxia rep growth 8.
For Cc1cccc(C(=O)NC2c3ccccc3CC2O)n1 (stereo not given) the results were ugtP null kill 2, RN4220 kill 4.4, Mtb hypoxia rep 9 and Mtb hypoxia rep growth 11.
Screening CCCCCCC[C@@H](C/C=C/CCC(=O)N(C)C/C(=C/Cl)C/C(=C\C(=O)N1CC(OC)=CC1=O)OC)OC returned PrP 5UTR inh -175, ugtP null kill -23, RN4220 kill 3.7, Mtb hypoxia rep -3, Bead autofluor 3867 and Mtb hypoxia rep growth 4.
Screening O=C(CN1C(=O)NC2(CCCC2)C1=O)Nc1cc(Cl)ccc1N1CCCCC1 returned PrP 5UTR inh 1, ugtP null kill -7, RN4220 kill 1.2, BJeLR viability 1, Mtb hypoxia rep 4, Bead autofluor 5924 and Mtb hypoxia rep growth 7.
COc1ccc(Sc2cnn(-c3ccccc3)c(=O)c2Cl)cc1 was read as PrP 5UTR inh -30, ugtP null kill 16, RN4220 kill 7.3, BJeLR viability 2, Mtb hypoxia rep 4, Bead autofluor 2945 and Mtb hypoxia rep growth 11.
CCC1(CC)NC(=O)N(CC(=O)OC(C)C(=O)Nc2ccc(NC(C)=O)cc2)C1=O (stereo not given) was read as PrP 5UTR inh 0, ugtP null kill 9, RN4220 kill 3.0, BJeLR viability 1, Mtb hypoxia rep 11, Bead autofluor inconclusive and Mtb hypoxia rep growth -5.
O=C(NCc1ccco1)c1c(F)cccc1Cl was read as PrP 5UTR inh -13, ugtP null kill 5, RN4220 kill 4.7, BJeLR viability -18, Mtb hypoxia rep -3, Bead autofluor 2522 and Mtb hypoxia rep growth 6.
For O=C(OCc1cc([N+](=O)[O-])cc2c1OCOC2)c1cccnc1SC(F)F the results were PrP 5UTR inh -29, ugtP null kill 10, RN4220 kill 1.5, Mtb hypoxia rep 15, Bead autofluor 6674 and Mtb hypoxia rep growth 8.
Screening CC(C)CCNC(=O)Cc1ccccc1[N+](=O)[O-] returned PrP 5UTR inh -22, ugtP null kill 1, RN4220 kill 1.2, BJeLR viability -3, Mtb hypoxia rep 9, Bead autofluor 8834 and Mtb hypoxia rep growth 10.
Cc1ccc(NNC(=O)c2ccno2)cc1Cl was read as PrP 5UTR inh -10, ugtP null kill 9, RN4220 kill 3.3, BJeLR viability -7, Mtb hypoxia rep -3, Bead autofluor 3886 and Mtb hypoxia rep growth -3.
Screening Cc1ccc(/C=C2\C(=O)NC(=S)N(c3ccc(F)cc3)C2=O)o1 returned PrP 5UTR inh -3, ugtP null kill 13, RN4220 kill 4.7, BJeLR viability 7, Mtb hypoxia rep 6, Bead autofluor 3067 and Mtb hypoxia rep growth 0.
For CCOC(=O)C1=C(N)OC2=C(C(=O)CCC2)C1c1cccs1 (stereo not given) the results were PrP 5UTR inh -25, ugtP null kill 6, RN4220 kill 7.9, BJeLR viability -8, Mtb hypoxia rep 11, Bead autofluor 8209 and Mtb hypoxia rep growth 6.
Screening COc1ccccc1C(=O)NC(=O)COC(=O)c1ccc(C)o1 returned PrP 5UTR inh -30, ugtP null kill 8, RN4220 kill 4.1, BJeLR viability -7, Mtb hypoxia rep 11, Bead autofluor 5562 and Mtb hypoxia rep growth 10.
CCCOC(=O)CSc1nc(N)c(C#N)c(CC)c1C#N was read as PrP 5UTR inh -8, ugtP null kill -16, RN4220 kill 0.1, BJeLR viability -4, Mtb hypoxia rep 7, Bead autofluor 4027 and Mtb hypoxia rep growth 12.
COc1ccc(-n2nnnc2-c2cnc3cc4c(cc3c2C)OCO4)cc1 was read as PrP 5UTR inh 3, ugtP null kill 2, RN4220 kill 2.0, BJeLR viability -4, Mtb hypoxia rep -6, Bead autofluor 10241 and Mtb hypoxia rep growth 5.
`O=C(CSC(=S)N1CCOCC1)Nc1nc(=O)c2ccccc2s1` gave ugtP null kill 5, RN4220 kill 2.3, BJeLR viability 5, Mtb hypoxia rep 3 and Mtb hypoxia rep growth -6.
For O=C(OCCCc1ccncc1)c1ccc(S(=O)(=O)N2CCOCC2)cc1 the results were PrP 5UTR inh -26, ugtP null kill -2, RN4220 kill 6.2, BJeLR viability -6, Mtb hypoxia rep 9, Bead autofluor 8386 and Mtb hypoxia rep growth 7.
`COc1cc(C2Nc3ccccc3C(=O)N2NS(C)(=O)=O)ccc1O` (stereo not given) gave PrP 5UTR inh -20, ugtP null kill 10, RN4220 kill 2.9, BJeLR viability 6, Mtb hypoxia rep 10, Bead autofluor 4464 and Mtb hypoxia rep growth 11.
